Screens (PubChem)
Bead autofluor: compound fluorescence in toxin protease inhibitor counterscreen. compound autofluorescence counterscreen, microsphere flow cytometry; active compounds read high. fluorescence intensity (test concentration not listed). 3.1% of 360,000 active. AID 624483;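 active = at least 3 SD above the mean of all compounds, about 16000 in these data; inconclusive = too few beads counted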;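 also: 100 nL of 1 mM stock went into each well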
PrP 5UTR inh: inhibition of PrP 5' UTR reporter expression | cell-based PrP 5' UTR mRNA reporter, plate reader | inhibition, % (concentration not given with the values) | 0.35% of 340,000 active;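 active = every replicate at 50% or more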;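 also: 0 = median of the neutral control wells; tested in H4 reporter cells; numbers are from one replicate; inactives centre near -14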
Mtb hypoxia rep: Mtb hypoxia fluorescent reporter inhibition; M. tuberculosis hypoxia-regulated fluorescent reporter, fluorescence; fluorescence inhibition, % (concentration not given with the values); 0.1% of 300,000 active; AID 1159583;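 active = 35 to 45% if threefold the growth effect, above 45% if 1.5-fold the growth effect; inactive = the rest, general growth blockers included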;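 also: wells of about 50 µL received 100 nL stock; 0% = vehicle wells and 100% = reference inhibitor wells; whole bacteria with a GFP reporter of the hypoxia response; strong numbers were not always called active; many hits fall short of the cut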
RN4220 kill: S. aureus RN4220 growth inhibition | OD600, 16 h | inhibition, % (no concentration beside the values) | 0.33% of 330,000 active | AID 1259311;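 active = z-score of -3 or lower and OD600 up to 0.18 on both plates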;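 also: plate controls were untreated cells for no effect and reference antibiotic for full effect; stock transfer was 100 nL into about 80 µL; one replicate is shown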
ugtP null kill: compounds lethal to S. aureus RN4220 ugtP deletion mutant | OD600 growth, 16 h; some inactives read as strong as hits | growth inhibition, % (no concentration beside the values) | 0.54% of 330,000 active | AID 1259309;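 active = z-score under -3 and OD600 up to 0.15 on both plates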;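 also: plate controls were untreated wells for no effect and antibiotic for full effect; wells of about 80 µL received 100 nL stock; the first replicate is given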
BJeLR viability: BJeLR cell viability loss | BJeLR (HRASV12) viability, CellTiter-Glo ATP luminescence, 48 h; reference of the scale not given here | inhibition, % (test concentration not listed) | 0.17% of 300,000 active;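 active = replicate mean above 50%; inconclusive = above 50% but judged a plate artefact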;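 also: 50 nL library stock added to about 25 µL; numbers are from one replicate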
Mtb hypoxia rep growth: recorded beside Mtb hypoxia rep, whose call it bears; growth inhibition, %; measured here: M. tuberculosis growth (absorbance);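 0% = vehicle and 100% = reference antibiotic; read after six days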
* hit, by the source's call; ? = inconclusive; nt = not tested or not shown; & = joins results of further samples.

SMILES	Bead autofluor	PrP 5UTR inh	Mtb hypoxia rep	Mtb hypoxia rep growth	RN4220 kill	ugtP null kill	BJeLR viability
COc1ccc(/C=C2\CCC(C3CCCC3)C2=O)c(OC)c1 (stereo unspecified)	4008	-13	8	2	2.3	13	6
CC(=O)NCCNc1ccc([N+](=O)[O-])cn1	2513	-58	4	7	1.3	6	-4
O=C(Cc1ccccc1)NN1C(=O)/C(=C/c2ccc(C(=O)O)cc2)SC1=S	4395	-13	18	10	3.0	0	10
O=C(NCc1cccs1)C1CCCCC1	?	5	nt	nt	6.7	13	5
COC(=O)C(C(=O)NCC1CCCO1)C1CCCC1 (stereo unspecified)	3472	-34	9	-6	1.4	9	6
COc1cccc(NC(=O)CN(C)C(=O)CC2CCCCC2)c1	5905	-3	-4	0	-1.0	1	nt
Cc1cc(C)cc(NC(=O)C(NCCN2CCOCC2)c2ccccc2)c1 (stereo unspecified)	4410	-20	15	4	13	7	-17
COc1ccccc1C(=O)Nc1ccnn1C1CCN(C/C=C/c2ccc(F)cc2)CC1	6316	14	-6	4	-2.2	0	4
Cc1c(C(=O)Nc2ccncc2)sc2nc(-c3ccc(F)cc3)cn12	5841	-19	4	8	-7.0	-5	-10
CCC(CC)c1nnc(NC(=O)COc2ccc3c(c2)OCO3)s1	5012	-14	-2	-20	-1.4	3	-10
COCCCNC(=S)Nc1ccccc1[N+](=O)[O-]	4376	-20	0	-11	7.6	4	-1
CC(C)c1ccc(NC2CCCN(C(=O)c3ccnn3C)C2)cc1 (stereo unspecified)	5945	-9	6	4	4.1	5	0
CC(O)CN=c1cc(-c2ccccc2)oc2ccc(Cl)cc12 (stereo unspecified)	3250	-76	24	6	9.3	-1	-3
CC(C)CC(C(=O)N1CCOCC1)N1Cc2ccccc2C1=O (stereo unspecified)	3354	4	-2	16	2.2	-1	-5
COc1ccc(OC(C)C(=O)NC(C)c2ccccc2)cc1 (stereo unspecified)	3535	-6	-4	8	1.2	-2	7
CN(C)c1cccc(C(=O)OCC(=O)Nc2ccccc2Sc2ccccc2)c1	2856	-23	3	11	3.2	-2	-16
O=C(COC(=O)c1ccc(O)cc1)Nc1cccc(S(=O)(=O)NC2=NCCC2)c1	8806	-23	11	-5	1.4	0	nt
O=C(Nc1ccc(NS(=O)(=O)c2ccccc2)cc1)c1ccc(Cl)cc1	5541	1	5	-3	0.1	-5	17
CSc1nsc(NC(=O)OCc2ccc(Cl)cc2)n1	3690	-34	6	10	10.0	5	-7
Cc1noc(C)c1CSc1ccccc1C(=O)O	5899	-12	10	12	1.0	6	-8
COc1cc(C(C(=O)NC2CCCC2)N(C(=O)c2snc(C(N)=O)c2N)C2CCCC2)cc(OC)c1OC (stereo unspecified)	3730	-25	nt	nt	nt	nt	2
O=c1cc(-c2ccccc2)oc2cc(OCc3ccccc3)cc(O)c12	6310	0	6	7	9.5	11	-1
COc1ccc(CNC(=O)CCCn2nc(C)c3c(C)n(-c4ccccc4)nc3c2=O)cc1	5464	-4	14	-2	-0.5	5	-19
COc1cc(NC(=O)CN2CCC(C(N)=O)(N3CCCCC3)CC2)c(OC)cc1Cl	3817	-4	6	16	6.1	17	-16
NC(=S)Nc1cccc(F)c1	4365	-32	22	6	5.7	14	-3
Additional records:
SMILES	Bead autofluor	PrP 5UTR inh	Mtb hypoxia rep	Mtb hypoxia rep growth	RN4220 kill	ugtP null kill	BJeLR viability
C#CC1CN(Cc2ccccc2)CC(C#C)N1C (stereo unspecified)	8660	-23	1	-17	-0.5	7	7
O=C(Nc1nccs1)C1CC=CC2CCN(Cc3ccccc3)C(=O)C21 (stereo unspecified)	nt	nt	10	4	7.6	10	nt
CC(C(=O)N1CCN(Cc2ccc3c(c2)OCO3)CC1)c1ccc([N+](=O)[O-])cc1 (stereo unspecified)	2762	-31	1	7	9.4	3	-2
CC(NC(=O)CCc1nnc(C2(c3ccc(Cl)cc3)CCC2)o1)C1CC1 (stereo unspecified)	2582	-16	4	7	-1.1	4	11
CCOC(=O)NC(=O)/C(C#N)=N\Nc1ccc(Cl)cc1	2560	-17	nt	nt	nt	nt	12
O=C(Cc1ccc(Cl)cc1)NNC(=O)c1ccco1	4914	-25	3	-6	2.2	4	-8
CSc1nc2ncc(C#N)cn2n1	3208	-4	20	3	5.1	9	-1
COc1ccc(N(CC(=O)NCCSCc2ccco2)S(=O)(=O)c2ccccc2)cc1Cl	5515	-11	0	2	-2.3	0	7
Fc1cccc(F)c1/C=N/Nc1ccccn1	3847	-86	nt	nt	nt	nt	5
COc1cccc(CNC(=O)c2cccc(NC(=O)C3=C(C)OCCS3)c2)c1	5970	-49	14	8	-13	-8	-4
CCOc1ccc(OCC(=O)Nc2ccccc2C(F)(F)F)cc1	4454	-28	10	0	5.1	5	-2
O=C(CNC(=O)c1ccco1)Nc1ccc(N2CCCCCC2)cc1	nt	-50	9	6	1.2	-1	nt
COc1ccc(/C=N/NC(=O)C(Cc2c[nH]c3ccccc23)NC(=O)OCC(C)C)cc1[N+](=O)[O-] (stereo unspecified)	4300	-5	nt	nt	nt	nt	0
Cc1cccc(CCNC(=O)CNS(=O)(=O)c2ccc3nc(C)sc3c2)c1	5608	-28	4	2	-0.3	-4	-13
Cc1occc1-c1nnc(SCC(=O)N2CCOCC2)o1	9841	-11	15	14	3.0	3	-2
CCOc1ccc(CCNC(=O)c2nn(C)c3c2CS(=O)(=O)c2ccccc2-3)cc1OCC	5401	1	13	9	1.9	5	-3
CC1CCCN(C(=O)c2nn(C)c3c2CS(=O)(=O)c2ccccc2-3)C1 (stereo unspecified)	5657	-9	6	11	-0.2	0	5
CCOC(=O)N1CCN(C(=S)NC(=O)C23CC4CC(CC(C4)C2)C3)CC1	3754	-33	9	14	4.4	-3	1
COc1ccc(NC(=O)CN(C)CC(=O)Nc2sc3c(c2C#N)CCC3)cc1	5508	nt	10	4	1.7	-6	nt
Clc1ccc(-c2cn3ccccc3n2)cc1	3271	-26	12	9	1.9	3	11
CNC(=O)c1[nH]cnc1C(=O)Nc1ccc(OC)cc1	4631	5	9	6	4.3	-5	0
CCCC[C@@H](CNC)NC[C@H](Cc1ccc(O)cc1)NCCc1ccc(OCC)cc1	3072	-14	nt	nt	nt	nt	15
COc1cccc(C2CC(c3ccc(C(C)C)cc3)n3nc(N)nc3N2)c1 (stereo unspecified)	5814	-16	nt	nt	1.1	13	-3
Nc1nc(NCCO)nc(NCc2ccccc2)c1[N+](=O)[O-]	3270	-3	3	-5	-0.3	18	-5
CCOC(=O)C1=C(C)N=C(SC)N(C)C1c1ccccc1 (stereo unspecified)	15788	-2	7	6	4.1	9	2
Further structures follow.
SMILES	Bead autofluor	PrP 5UTR inh	Mtb hypoxia rep	Mtb hypoxia rep growth	RN4220 kill	ugtP null kill	BJeLR viability
NC(=O)CC1C(=O)N(c2ccccc2)C(=S)N1NC(=O)c1ccc(Br)cc1 (stereo unspecified)	3920	-18	4	9	1.8	18	-3
O=c1c(-c2ccc(O)cc2)coc2cc(O)cc(O)c12	5388	-37	nt	nt	0.3	-8	-5
O=c1oc2c(-c3ccc([N+](=O)[O-])cc3)cc(O)cc2s1	4736	-5	17	0	-1.3	13	-9
Cc1cc(SCC(=O)NC(=O)NCc2ccco2)nc2ccccc12	8675	4	-4	-2	2.8	-7	-1
CCCCCCSc1ccc(C2C3C(=O)N(C)C(=O)C3[C@]3(C(=O)OC)CCCCN23)cc1OC (stereo partly specified)	nt	nt	7&1	0&3	-2.7&3.4	10&-17	nt
Oc1c(CN2CCCCC2)cc(Br)c2cccnc12	10496	23	-1	-6	12	-23	6
CCOc1ccc(C2CC(=O)c3c([nH]c(C(=O)OC)c3C)C2)cc1OC (stereo unspecified)	3160	-16	nt	nt	0.7	-16	6
Cc1cc(NC(=O)CSc2cn(CCNC(=O)c3ccc(Cl)cc3)c3ccccc23)no1	4965	-15	7	8	6.5	2	-1
COc1ccccc1C(=O)Nc1ccc(S(=O)(=O)N2CCCCC2c2cccnc2)cc1 (stereo unspecified)	4238	-20	1	2	-0.2	1	0
c1ccc2cc(OCCCn3ccnc3)ccc2c1	3449	-18	5	3	4.0	3	-3
Cc1cc(C(F)F)n2ncc(C(=O)NC3CCCCCC3)c2n1	2557	-15	17	23	-5.3	-7	0
COC(=O)CN1C(=O)[C@H]2[C@@H](/C=C/c3ccccc3)N3C(=O)CN(Cc4ccccc4)C(=O)[C@@]3(C)[C@H]2C1=O	3768	0	nt	nt	nt	nt	-13
Cc1nn(-c2ccccc2)c(C)c1C(=O)NCCc1ccc(Cl)cc1	6265	-10	5	4	6.3	11	5
CCN(CC)CC(=O)Nc1ccc2c(c1)N(C(=O)CN(CC)CC)c1ccccc1CC2	8798	10	3	5	3.0	-1	-5
c1ccc2c(c1)[nH]c1c(N3CCN(C4CCCCC4)CC3)ncnc12	3822	-65	5	7	-2.2	-1	5
CN(C(=O)/C=C/c1ccc(F)cc1)C1CCCCC1	5759	nt	16	18	5.7	3	-9
COc1ccc(C2/C(=C(\O)c3ccc4c(c3)OCCO4)C(=O)C(=O)N2Cc2cccnc2)cc1 (stereo unspecified)	5347	-6	-4	2	-4.8	-5	4
Cc1ccc(SCCC(=O)N2CCC(C)CC2)cc1	8034	-74	16	14	7.3	1	-2
CC1CC(C)CN(C(=O)c2ccc(NS(=O)(=O)c3ccc4[nH]c(=O)[nH]c4c3)cc2)C1 (stereo unspecified)	6285	-7	5	-2	0.0	1	-5
Cn1c(Cc2ccccc2)nnc1SCC(=O)NCCc1ccccc1	4239	-7	10	0	1.8	1	-15
ON=Cc1cccnc1Sc1ccccc1	nt	nt	0	9	1.8	-1	nt
CCN(CC)CCCNC(=O)CC1Sc2ccccc2NC1=O (stereo unspecified)	2803	-18	1	-1	-13	-5	1
COc1ccc(Br)cc1CNCCSc1nnnn1C	22723*	-6	3	0	1.2	1	0
Clc1ccc(-c2cccs2)nn1	3316	-3	-8	-14	3.6	0	-20
C=CCc1c(N(CC)CC)nc(C)[nH]c1=O	3572	-8	2	8	5.3	15	12
Next part.
SMILES	Bead autofluor	PrP 5UTR inh	Mtb hypoxia rep	Mtb hypoxia rep growth	RN4220 kill	ugtP null kill	BJeLR viability
O=C(c1cccc(S(=O)(=O)N2CCCCCC2)c1)N1CCN(c2ccccc2F)CC1	4441	-1	-2	-5	0.1	2	-1
Nc1nonc1-n1nnc(C(=O)N/N=C/c2cccnc2)c1CSc1ccc(Cl)cc1	5312	-23	nt	nt	nt	nt	-2
Cc1cc(NC(=O)CS(=O)(=O)c2cn(Cc3ccccc3Cl)c3ccccc23)no1	10111	0	2	3	-0.8	-4	-9
N=c1c2c(n(Cc3ccccc3)c3c1CCC3)CCC2	2374	1	5	-3	-12	-12	4
Fc1ccccc1C=Nn1cnnc1	nt	nt	4	5	5.7	2	nt
COc1ccc(NC(C#N)c2ccccc2OCc2ccccc2)cc1 (stereo unspecified)	2088	-26	6	18	4.2	-2	0
O=C(CS(=O)CC(=O)N(CC(=O)NC1CCCC1)c1ccc2c(c1)OCCO2)Nc1ccc(F)cc1 (stereo unspecified)	9216	-34	14	5	3.8	1	-4
C#CCN1C(=O)C(O)(CC(=O)c2cc(OC)ccc2OC)c2ccccc21 (stereo unspecified)	8458	-12	7	4	5.5	3	-6
CCN(CC)S(=O)(=O)c1ccc(NC(=O)COc2cccc(-n3cnnn3)c2)cc1	3829	-22	-7	5	-0.2	-6	nt

Compounds shown so far with a nitro group on carbon:
SMILES	Bead autofluor	PrP 5UTR inh	Mtb hypoxia rep	Mtb hypoxia rep growth	RN4220 kill	ugtP null kill	BJeLR viability
CC(=O)NCCNc1ccc([N+](=O)[O-])cn1	2513	-58	4	7	1.3	6	-4
COCCCNC(=S)Nc1ccccc1[N+](=O)[O-]	4376	-20	0	-11	7.6	4	-1
CC(C(=O)N1CCN(Cc2ccc3c(c2)OCO3)CC1)c1ccc([N+](=O)[O-])cc1 (stereo unspecified)	2762	-31	1	7	9.4	3	-2
COc1ccc(/C=N/NC(=O)C(Cc2c[nH]c3ccccc23)NC(=O)OCC(C)C)cc1[N+](=O)[O-] (stereo unspecified)	4300	-5	nt	nt	nt	nt	0
Nc1nc(NCCO)nc(NCc2ccccc2)c1[N+](=O)[O-]	3270	-3	3	-5	-0.3	18	-5
O=c1oc2c(-c3ccc([N+](=O)[O-])cc3)cc(O)cc2s1	4736	-5	17	0	-1.3	13	-9
